# MT1-MMP reporter: MT1-MMP gene expression reporter suppression – cell-based, luciferase reporter, luminescence (AID 618) | calls from a first round at 10 µM; hits with a dose series show EC50 in µM | MT1-MMP promoter luciferase reporter cells, luminescence | actives 0.62% (n = 87,000);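 active = over half of the reporter light lost at 10 µM or EC50 under 50 µM; inactive = the rest and hits that failed the dose series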;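 note: actives suppress MT1-MMP promoter-driven transcription so potencies describe inhibitors; HT1080 fibrosarcoma cells; overnight exposure; toxic or luciferase-blocking compounds were not removed from the actives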
# WNV NS2B-NS3 inh: blocks West Nile virus NS2B-NS3 protease activity. P06935. actives 0.18% (n = 65,000). z-score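 (tested at a level between 10 and 100 µM)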. WNV NS2B-NS3 protease, fluorogenic substrate Ex360/Em465; active compounds read low;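 active = z-score at -3 or under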;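 note: score is relative to mean and spread of the compound wells of a plate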
# Target sequence (P06935 1371-1501 limits assumed): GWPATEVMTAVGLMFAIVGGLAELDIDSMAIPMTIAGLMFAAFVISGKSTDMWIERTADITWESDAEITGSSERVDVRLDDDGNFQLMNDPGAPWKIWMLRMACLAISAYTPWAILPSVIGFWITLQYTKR
# Target sequence (P06935 1502-1679 limits assumed): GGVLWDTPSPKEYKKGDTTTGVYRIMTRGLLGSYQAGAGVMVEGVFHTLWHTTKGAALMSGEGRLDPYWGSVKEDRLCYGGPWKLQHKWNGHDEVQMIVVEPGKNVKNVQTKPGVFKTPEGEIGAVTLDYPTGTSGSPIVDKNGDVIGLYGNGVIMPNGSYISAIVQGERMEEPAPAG
# Hsc70: Hsc70 inhibitors, probe displacement, primary screen, biochemical, fluorescence polarization (AID 568); Hsc70 fluorescence polarization, probe displacement; higher % means a stronger effect; strong numbers were not always called active; one-dose displacement, % at 20 µM; IC50 in µM for titrated hits; 83,000 tested, under 10 active;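 active = displacement above 50% without optical interference and an IC50 on retest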;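 note: ATPase domain with a fluorescein-tagged ATP probe; 0% = vehicle and 100% = excess ADP; read after one hour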
# Active calls of the source: *; i = inactive; x = no result given; + = active, no number.
Compound,Hsc70,MT1-MMP reporter,WNV NS2B-NS3 inh
COC(=O)C1=C(N)OC2=C(C(=O)CC(C)(C)C2)C1c1cccnc1 (stereo unspecified),-1.1%,i,1.1
Cc1ccc(NS(=O)(=O)c2cccc(C(=O)n3ncc(C#N)c3N)c2)c(C)c1,1.2%,i,-0.38
COc1ccc(-c2nc(CN3CCC(C(=O)N4CCc5ccccc54)CC3)c(C)o2)cc1OC,-1.3%,i,-2
CN1C(=O)C(O)(CC(=O)c2ccncc2)c2ccccc21 (stereo unspecified),-3.5%,i,x
CCn1c(COc2ccccc2C)nnc1SCC(=O)O,0.9%,i,0.36
c1cnc2ccc(C(c3nnnn3C3CCCC3)N3CCN4CCCC4C3)cc2c1 (stereo unspecified),-3.2%,i,x
Cc1ccc(NC(=O)CNc2ccc(OC(C)C)cc2)c(C)c1,3.6%,i,x
c1ccc(Cc2nnc3sc(-c4cccnc4)nn23)cc1,-3.3%,i,-0.18

Compound,Hsc70,MT1-MMP reporter,WNV NS2B-NS3 inh
Cc1cc(Nc2ccccc2)n(C(=O)c2ccccc2)n1,1.6%,i,x
CC(=O)Nc1ccc(OCC(O)CN2CCN(c3cccc(Cl)c3)CC2)cc1 (stereo unspecified),-0.1%,i,0.24
CCOc1ncccc1C(=O)OCC(=O)N1CCN(S(=O)(=O)c2ccc(Cl)cc2)CC1,-2.1%,i,-0.13
Nc1nc(SCc2nc3scc(-c4cccs4)c3c(=O)[nH]2)n[nH]1,-4.7%,i,-0.0091
CC(NC(=O)C1CCN(S(=O)(=O)N2CCCCCC2)CC1)c1ccccc1 (stereo unspecified),2.0%,i,1.5
CC12CN3CC(C)(CN(C1)C3c1ccc3c(c1)OCO3)C2=O (stereo unspecified),-4.8%,i,-0.32
COc1ccc2c(c1)N(C)C(=O)CC(c1ccccc1)=N2,-1.6%,i,-1
Cc1cccc(NC(=O)Cn2c(=O)n(C)c3ccccc32)c1,0.6%,i,-0.55

Compound,Hsc70,MT1-MMP reporter,WNV NS2B-NS3 inh
Cc1occc1C(=O)N1CCN(C(=O)C2CCCO2)CC1 (stereo unspecified),4.3%,i,0.24
CCc1nnc(NC(=O)CCC(=O)N2CCN(Cc3cc(Cl)ccc3OC)CC2)s1,-4.3%,i,-1.4
CC1=CC(C)(C)Nc2ccccc21,-4.6%,i,1.5
COc1ccc(/C=N/n2c(SC)nnc(C(C)(C)C)c2=O)cc1OC,-0.7%,i,x
CN(C)CCCN1C(=O)c2oc3ccc(F)cc3c(=O)c2C1c1cccnc1 (stereo unspecified),0.0%,i,-0.16
CC(=O)N1CCC(N(CCCOC(C)C)C(=O)Nc2ccc(C)c(C)c2)CC1,6.6%,i,x
CC(C)NC(=O)CSc1nncn1-c1ccccc1,-2.7%,i,0.93
COc1cc(CN2CCC(C(=O)N3CCN(c4ccccc4F)CC3)CC2)cc(OC)c1O,2.8%,i,1.8

Compound,Hsc70,MT1-MMP reporter,WNV NS2B-NS3 inh
CCOc1cc(C2C(C#N)=C(N)OC3CCCC(=O)C32)ccc1OCCN1CCOCC1 (stereo unspecified),2.4%,i,1.4
Cc1nc(N2CCN(S(=O)(=O)c3ccccc3)CC2)c2cc(-c3ccccc3)sc2n1,-4.3%,i,x
O=C(CSc1cccc2cccc(Cl)c12)OCC(=O)N1CCN(C(=O)c2ccco2)CC1,-3.2%,i,x
O=S(=O)(NCCSc1nnc(-c2ccco2)n1-c1ccccc1)c1ccccc1,1.6%,i,-0.9
Cc1c(C(=O)OC(C)C)sc2nc[nH]c(=O)c12,-1.9%,i,x
COc1cccc(Cn2cccc(NC(=O)Nc3ccc(C#N)cc3)c2=O)c1,-2.2%,i,x
O=C(Nc1ccc2nc(-c3ccco3)c(-c3ccco3)nc2c1)N1CCCCCC1,19%,i,-0.75
CCN1CCCC1CNC(=O)C1c2cc(OC)c(OC)cc2C(=O)N(C)C1c1cccnc1 (stereo unspecified),-1.0%,i,-0.57

Compound,Hsc70,MT1-MMP reporter,WNV NS2B-NS3 inh
COc1ccc(C)cc1S(=O)(=O)NCCc1ccccc1,6.1%,i,x
NC1=NC(=O)CC(C(=O)NCc2ccccc2)S1 (stereo unspecified),-0.6%,i,0.46
O=c1[nH]c2ccc(Cl)cc2c(-c2ccccc2)c1N1CCN(c2ccccn2)CC1,-1.1%,i,-0.43
CCCOc1ccc(NCC(=O)Nc2ccc(C)cc2C)cc1,-6.8%,i,x
CCOc1ccccc1N(CC(=O)Nc1cc(OC)ccc1OC)S(C)(=O)=O,5.0%,i,x
CCCN=Cc1sc2ccc(OCC)cc2c1O,-12%,i,0.59
O=S(=O)(c1cccc(S(=O)(=O)N2CCOCC2)c1)N1CCCCC1,-0.6%,i,x
CCn1c(CNC(=O)Cc2ccc(OC)cc2)nnc1SCC(=O)NC1CCCCC1,-1.8%,i,x

Compound,Hsc70,MT1-MMP reporter,WNV NS2B-NS3 inh
COc1ccc2c(c1)c(C(O)CN1CCC3(CC1)OCCO3)c(C)n2C (stereo unspecified),-2.7%,i,-1
Cc1c(C(=O)OCC2CCCO2)[nH]c2c1C(=O)CC(c1ccco1)C2 (stereo unspecified),1.1%,i,-0.95
O=C(CCSc1nnc(-c2ccncc2)o1)Nc1cccc2ccccc12,-0.6%,i,x
COc1cccc(-c2ncc3ccccn23)c1,-1.4%,i,x
Cc1ccc(C(=O)c2ccccc2C(=O)O)s1,1.3%,i,x
CN1CCC(OC(=O)c2ccc(Br)cc2)CC1,-0.7%,i,x
Cn1cnnc1SCc1ccc(F)c2ccccc12,2.0%,i,0.27
CN1CCc2nc(NC(=O)c3cccc(S(=O)(=O)N4CCc5ccccc54)c3)sc2C1,-23%,i,-0.36

Compound,Hsc70,MT1-MMP reporter,WNV NS2B-NS3 inh
COc1ccc(NC(=O)/C(=C\c2ccc(OS(=O)(=O)c3ccc(C)cc3)cc2)NC(=O)c2ccccc2)cc1,4.6%,i,x
Cc1cc(=O)[nH]c2c1c(C)nn2C1CCCC1,-2.3%,i,-1
O=S(=O)(c1ccc(S(=O)(=O)N(Cc2ccco2)Cc2ccccc2Cl)cc1)N1CCCC1,-1.9%,i,0.22
CC(C)CCOP(=O)(c1ccc(N(C)C)cc1)C(O)c1ccccn1 (stereo unspecified),-5.5%,i,1.3
O=C(CS(=O)(=O)Cc1ccccc1)Nc1nnc(C2CCCCC2)s1,-2.9%,i,0.74
O=C(COc1ccccc1)NCc1ccccc1,-5.0%,i,x
COC(=O)[C@@H](NC(=O)Nc1ccc(OC(F)(F)F)cc1)C(C)C,-1.1%,i,0.23
COc1ccc(Br)cc1/C=N/n1c(C)nnc1C,-3.7%,i,-0.26

# Sorted by SMILES length (falling): some entries from above.
Compound,Hsc70,MT1-MMP reporter,WNV NS2B-NS3 inh
O=C(CS(=O)(=O)Cc1ccccc1)Nc1nnc(C2CCCCC2)s1,-2.9%,i,0.74
COc1ccc(C)cc1S(=O)(=O)NCCc1ccccc1,6.1%,i,x
CCn1c(COc2ccccc2C)nnc1SCC(=O)O,0.9%,i,0.36

# Carrying on.
Compound,Hsc70,MT1-MMP reporter,WNV NS2B-NS3 inh
COc1ccc(CC(=O)NCc2nnc(SCC(=O)Nc3nccs3)n2-c2ccccc2)cc1,3.4%,i,-0.62
COc1ccccc1N1CC(O)=C(c2nc3ccccc3c(=O)[nH]2)C1=N,-0.2%,i,-0.82
O=C(Nc1cccc(F)c1)c1ccc(S(=O)(=O)NCC2CCCO2)cc1 (stereo unspecified),-4.5%,i,-0.37
CCOC(=O)c1nnn(-c2nonc2N)c1COc1ccc(F)cc1,1.6%,i,x
CCOC(=O)c1[nH]c2ccc(OC)cc2c1NC(=O)C(C)N1CCSCC1 (stereo unspecified),3.6%,i,-1.7
Cn1c(SCC(=O)Nc2cccc(Br)c2)nnc1-c1cc2ccccc2o1,-1.8%,i,x
O=C1CCCC2=C1C(c1ccco1)Nc1ccc(C(=O)c3ccccc3)cc1N2 (stereo unspecified),1.5%,i,-1.2
Cn1c(=O)c2c(nc(NCCCO)n2Cc2cccc(Br)c2)n(C)c1=O,4.0%,i,0.82

Compound,Hsc70,MT1-MMP reporter,WNV NS2B-NS3 inh
CC1(C)Cc2c(sc3nc(SCC(=O)O)[nH]c(=O)c23)CO1,2.8%,i,-2.4
O=C(O)CCCCCNC(=O)c1ccc(Br)cc1,2.4%,i,x
Cc1ccc(S(=O)(=O)NCc2nc3ccccc3c(=O)n2N)cc1,-2.5%,i,-0.59
Cc1ccc(C)c(S(=O)(=O)NCCOc2nc(NC(C)C)nc(NC(C)C)n2)c1,-1.3%,i,x
O=C(NC1CCCCC1)N1CCN(C(c2ccccc2)c2ccccc2)CC1,-1.6%,i,x
CC(=O)c1cnc(Nc2nc(C)c3cc(C)c(C)cc3n2)nc1C,-1.4%,i,x
CCOC(=O)c1cc(C)n(CCc2ccccc2)c1C,-1.1%,i,-0.18
Cc1cc2oc(C(=O)NCc3ccc4c(c3)OCO4)c(C)c2cc1C,-2.7%,i,-1

Compound,Hsc70,MT1-MMP reporter,WNV NS2B-NS3 inh
CS(=O)(=O)N1CCN(C(=O)CCC2CCCC2)CC1,0.2%,i,-0.82
Cc1sc2ncnc(OCC(=O)NC(C)C)c2c1C,1.6%,i,x
O=C(C1CCCCC1)N1CCN(S(=O)(=O)c2ccc(Cl)cc2)CC1,2.2%,i,0.84
O=c1[nH]c(NCCCO)nc2c1C1(CCCC1)Cc1ccccc1-2,1.2%,i,0.06
CC1(C)Cc2c(c(N3CCOCC3)nc3snc(N)c23)CO1,-0.6%,i,-0.44
Cc1cc(C)nc(SCCn2c(N(C)Cc3ccccc3)nc3c2c(=O)n(C)c(=O)n3C)n1,-4.8%,i,x
O=C(Nc1cccnc1)c1ccc(Cl)c(S(=O)(=O)N2CCCCCC2)c1,2.4%,i,-0.33
Cc1cc(=O)[nH]c(N/N=C/c2ccco2)n1,-0.4%,i,x

# Quoted from the results shown for reference:
Compound,Hsc70,MT1-MMP reporter,WNV NS2B-NS3 inh
O=C(Nc1cccnc1)c1ccc(Cl)c(S(=O)(=O)N2CCCCCC2)c1,2.4%,i,-0.33
Cc1cc(=O)[nH]c(N/N=C/c2ccco2)n1,-0.4%,i,x

# Later entries:
Compound,Hsc70,MT1-MMP reporter,WNV NS2B-NS3 inh
CC(=O)c1c(COC(=O)c2ccncc2)nc2ccccc2[n+]1[O-],3.7%,i,-0.4
Cn1nc(-c2ccc(C(=O)O)cc2)c2ccccc2c1=O,-2.8%,i,x
CCC(=O)/C=C1/Sc2ccccc2N1CC,1.3%,i,x
CCc1ccc2[nH]c(=O)c(C(c3nnnn3CC3CCCO3)N3CCCc4ccccc43)cc2c1 (stereo unspecified),7.0%,i,0.39
O=C(c1ccc(-c2nnc(Nc3cccc(Cl)c3)c3ccccc23)cc1)N1C[C@H]2C[C@H](C1)c1cccc(=O)n1C2,-3.1%,i,x
c1ccc(-n2nnnc2Sc2n[nH]c(-c3ccncc3)n2)cc1,-0.4%,i,-0.14
CC1(C)CC(=O)C(C=NCCN2CCN(C(=O)c3ccc(Br)cc3)CC2)=C(O)C1,-4.9%,i,x
CCn1ncc(Br)c1C(=O)Nc1ccc(F)cc1F,8.0%,i,0.88

Compound,Hsc70,MT1-MMP reporter,WNV NS2B-NS3 inh
COc1ccccc1CN1C(=O)CCC1(C)C(=O)NC1CCCCCC1 (stereo unspecified),-4.8%,i,0.56
O=C(O)CCn1c2c(c3ccccc31)CCCC2,4.3%,i,x
COc1ccc(NC(=O)CSc2ccccn2)cc1OC,6.5%,i,-0.39
Cc1ccc(CNC(=O)CS(=O)Cc2nc(-c3ccccc3C)oc2C)cc1 (stereo unspecified),5.9%,i,0.13
C=CCN=C1SCC(=O)N1S(=O)(=O)c1ccccc1,-6.3%,i,-0.74
COC(=O)CC(NC(=O)c1ccco1)c1ccc(C(C)C)cc1 (stereo unspecified),-4.1%,i,x
C[N+]1(CCNC(=O)/C=N/O)CCCCC1,3.7%,i,-0.96
COc1cccc(N2CCN(CC(=O)c3c(C)[nH]c4ccccc34)CC2)c1,0.8%,i,x

Compound,Hsc70,MT1-MMP reporter,WNV NS2B-NS3 inh
CCCCCCCC1CC(CSC(=N)N)OC1=O (stereo unspecified),1.6%,i,x
CCCOP(=O)(OCCC)C1(Nc2ccc(C)cc2)CCCCC1,1.7%,i,x
OC(COc1ccccc1)CSc1ncn[nH]1 (stereo unspecified),2.0%,i,-0.77
COc1ccc(N2CC(C(=O)Nc3ccc4c(c3)OCO4)CC2=O)cc1 (stereo unspecified),2.8%,i,2.4
C=C(C)Cn1c(N2CCC(Cc3ccccc3)CC2)nc2c1c(=O)[nH]c(=O)n2C,0.7%,i,x
Cc1cc(C)nc(Sc2c(F)c(F)c(C(F)(F)F)c(F)c2F)n1,-8.3%,i,-1
COc1ccc(CNc2oc(COc3ccccc3Cl)nc2C#N)cc1,-17%,i,-0.32
Cc1ccccc1C(NC(N)=O)c1ccccc1 (stereo unspecified),6.9%,i,-0.56

Compound,Hsc70,MT1-MMP reporter,WNV NS2B-NS3 inh
N#CC(c1nc2ccccc2nc1N1CCCC1)S(=O)(=O)c1cccs1 (stereo unspecified),20%,i,-0.19
O=C(O)c1cccc(COc2ccc(CO)cc2Cl)c1,-2.3%,+,-0.84
CCN(CCCNS(=O)(=O)c1ccc2c(c1)oc(=O)n2C)c1cccc(C)c1,3.0%,i,0.16
CCOC(=O)CSc1nc(N)c(C#N)c(CC(C)C)c1C#N,3.2%,i,-1.1
Cc1cc(=O)oc2c(CN3CCC(C)CC3)c(O)c(Cl)cc12,57%,i,8.1
CCCCn1nnc(NC(=O)c2ccc(-c3cccc(Cl)c3)o2)n1,2.5%,i,x
CCOC(=O)CSc1nnc(C)n1N,-2.0%,i,1.3

# Some of the compounds tested. The share of hits here may be higher or lower than overall.
